Screening data (PubChem BioAssay)
AF4-AF9 inh: blocks AF4 peptide binding to human AF9; inhibition, % at 10 µM; AlphaScreen, biotin-AF4 peptide binding to FLAG-AF9; AID 651704; 0.47% of 350,000 active;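 active = every replicate reaching a set inhibition limit, whatever the replicate mean, cut at about 25% in these data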;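 also: 0% = plate neutral control median and 100% = total signal loss; the record names both 10 and 1 µM as test concentration; the first replicate is given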
Target sequence (P42568 whole entry, looked up): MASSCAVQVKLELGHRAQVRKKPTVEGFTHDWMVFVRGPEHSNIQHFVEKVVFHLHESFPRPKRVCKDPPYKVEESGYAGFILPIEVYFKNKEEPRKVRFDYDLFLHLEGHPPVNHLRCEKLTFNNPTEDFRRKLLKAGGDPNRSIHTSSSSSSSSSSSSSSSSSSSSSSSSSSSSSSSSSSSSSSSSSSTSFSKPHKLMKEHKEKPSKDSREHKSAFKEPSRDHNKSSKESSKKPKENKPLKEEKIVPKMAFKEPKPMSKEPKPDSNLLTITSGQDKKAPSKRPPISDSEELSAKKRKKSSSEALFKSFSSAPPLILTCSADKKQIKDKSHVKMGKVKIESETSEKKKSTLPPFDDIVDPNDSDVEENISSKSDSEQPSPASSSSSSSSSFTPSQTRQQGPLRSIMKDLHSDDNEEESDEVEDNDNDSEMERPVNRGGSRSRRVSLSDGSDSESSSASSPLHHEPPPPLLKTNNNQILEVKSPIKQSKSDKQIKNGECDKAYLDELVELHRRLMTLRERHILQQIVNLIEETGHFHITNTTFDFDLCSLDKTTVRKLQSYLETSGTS
FGF22 binding: shifts melting point of recombinant human FGF22; recombinant FGF22 thermal shift, SYPRO orange fluorescence; percent of sucrose octasulfate shift, DMSO zero; calls only at 9.99 µM; 1.5% of 340,000 active; Q9HCT0;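 active = melting point raised past a set limit in the mean and every replicate; three in four hits are not shown here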
Target sequence (Q9HCT0 whole entry, looked up): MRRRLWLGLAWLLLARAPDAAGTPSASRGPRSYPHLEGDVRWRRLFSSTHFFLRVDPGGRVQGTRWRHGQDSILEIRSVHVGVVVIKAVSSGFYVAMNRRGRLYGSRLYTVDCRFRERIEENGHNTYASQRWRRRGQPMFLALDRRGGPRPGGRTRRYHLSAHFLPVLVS
* = called active by the depositor; i = inactive; & = joins results of further samples.

SMILES | AF4-AF9 inh | FGF22 binding
O=C(Cc1ccncc1)N1CCCCN2[C@H](C1)[C@@H](c1ccc(C#CC3(O)CCCC3)cc1)[C@@H]2CO | -3.7 | i
COC(=O)[C@H]1[C@H](CO)[C@H]2Cn3c(ccc(C4=CCCCC4)c3=O)[C@@H]1N2C(=O)NC(C)C | 0.9 | i
COc1ccc(-c2ccc([C@@H]3[C@H]4CN(C(=O)Cc5ccncc5)CCCCN4[C@H]3CO)cc2)cc1 | -4.7 | i
COC(=O)[C@@H]1[C@@H](CO)[C@@H]2Cn3c(ccc(-c4cccc(OC)c4)c3=O)[C@H]1N2C(=O)c1cnccn1 | 0.5 | i
O=C(O)[C@H]1[C@H](CO)[C@H]2Cn3c(ccc(-c4ccncc4)c3=O)[C@@H]1N2C(=O)C1CCCCC1 | -4.5 | i
COc1ccc(C#Cc2ccc([C@H]3[C@@H](CO)N4CCCCN(C(=O)Cc5ccncc5)C[C@H]34)cc2)cc1 | 0.2 | i
COC(=O)[C@H]1[C@H](CO)[C@H]2Cn3c(ccc(/C=C/c4ccccc4)c3=O)[C@@H]1N2C(=O)C1CC1 | -8.6 | i
O=C(O)[C@H]1[C@H](CO)[C@H]2Cn3c(ccc(-c4cccnc4)c3=O)[C@@H]1N2C(=O)Nc1cc(F)ccc1F | -0.2 | i
N#Cc1ccc(-c2ccc([C@@H]3[C@@H](CO)N4CCCCN(C(=O)Cc5ccccc5)C[C@H]34)cc2)cc1 | -3.3 | i
COC(=O)[C@H]1[C@H](CO)[C@H]2Cn3c(ccc(-c4ccccc4)c3=O)[C@@H]1N2CC1CCOCC1 | 0.5 | i
O=C(Cc1cccnc1)N1CCCCN2[C@H](C1)[C@H](c1ccc(C#CC3(O)CCCC3)cc1)[C@@H]2CO | -4.7 | i
N#Cc1cccc(-c2ccc([C@@H]3[C@@H](CO)N4CCCCN(C(=O)Cc5cccnc5)C[C@@H]34)cc2)c1 | -5.5 | i

Looked up above:
AF4-AF9 inh with `O=C(Cc1ccncc1)N1CCCCN2[C@H](C1)[C@@H](c1ccc(C#CC3(O)CCCC3)cc1)[C@@H]2CO` reads -3.7
AF4-AF9 inh with `O=C(O)[C@H]1[C@H](CO)[C@H]2Cn3c(ccc(-c4cccnc4)c3=O)[C@@H]1N2C(=O)Nc1cc(F)ccc1F` reads -0.2
AF4-AF9 inh with `COC(=O)[C@H]1[C@H](CO)[C@H]2Cn3c(ccc(/C=C/c4ccccc4)c3=O)[C@@H]1N2C(=O)C1CC1` reads -8.6

The results go on:
SMILES | AF4-AF9 inh | FGF22 binding
O=C(Cc1ccncc1)N1CCCCN2[C@H](C1)[C@@H](c1ccc(C#Cc3ccccc3F)cc1)[C@@H]2CO | -5.2 | i
O=C(Cc1ccccn1)N1CCCCN2[C@@H](CO)[C@H](c3ccc(Br)cc3)[C@@H]2C1 | 1.2 | i
O=C(Cc1ccccn1)N1CCCCN2[C@H](CO)[C@H](c3ccc(Br)cc3)[C@H]2C1 | -4.0 | i
COc1ccc(C#Cc2ccc([C@@H]3[C@@H](CO)N4CCCCN(C(=O)Cc5ccccc5)C[C@H]34)cc2)cc1 | 3.5 | i
CN1[C@@H](CO)[C@@H]2c3ccccc3NC[C@@H]21 | -1.8 | i
COC(=O)[C@H]1[C@H](CO)[C@H]2Cn3c(ccc(C4=CCCC4)c3=O)[C@@H]1N2S(=O)(=O)c1cn(C)cn1 | -2.0 | i
CN1[C@@H]2c3cccc(=O)n3C[C@H]1[C@H](CO)[C@H]2C(=O)NCC1CC1 | 0.1 | i
CN1[C@@H]2Cn3c(cccc3=O)[C@H]1[C@@H](C(=O)NCC1CC1)[C@@H]2CO | 0.8 | i
COC(=O)[C@@H]1[C@@H](CO)[C@@H]2Cn3c(ccc(-c4ccccc4)c3=O)[C@H]1N2CC1CCCCC1 | 6.9 | i
COC(=O)[C@H]1[C@H](CO)[C@H]2Cn3c(ccc(-c4ccc(OC)cc4)c3=O)[C@@H]1N2C(=O)c1ccccc1F | -17 | i
COC(=O)[C@H]1[C@H](CO)[C@H]2Cn3c(ccc(-c4cccc(F)c4)c3=O)[C@@H]1N2Cc1ccccc1 | 1.7 | i
Oc1cc(Cl)c(Cl)cc1Cl | -3.3 | i
OC[C@H]1[C@@H]2c3ccccc3NC[C@@H]2N1Cc1cccnc1 | -6.2 | i
O=C(Cc1ccccc1)N1CCCCN2[C@H](CO)[C@@H](c3ccc(C#Cc4ccccc4)cc3)[C@@H]2C1 | -5.9 | i
COC(=O)[C@@H]1[C@@H](CO)[C@@H]2Cn3c(ccc(-c4ccccc4F)c3=O)[C@H]1N2 | -4.6 | i
COc1ccc(C#Cc2ccc([C@@H]3[C@@H](CO)N4CCCCN(C(=O)Cc5ccncc5)C[C@@H]34)cc2)cc1 | -5.5 | i
COc1ccc(C(O)(c2cncnc2)C2CC2)cc1 (centres undefined) | -1.6 | i
O=C1CNC[C@@H]2[C@H](c3ccc(Br)cc3)[C@H](CO)N12 | -5.6 | i
C/C=C/c1ccc([C@@H]2[C@@H](CO)N3CCCCN(C(=O)Cc4cccnc4)C[C@H]23)cc1 | 1.9 | i
COP(=O)(OC)OC=C(Cl)Cl | 1.0 | i
COC(=O)[C@@H]1[C@@H](CO)[C@@H]2Cn3c(ccc(-c4ccc(F)cc4)c3=O)[C@H]1N2Cc1cccnc1 | -3.1 | i
COC(=O)[C@@H]1[C@@H](CO)[C@@H]2Cn3c(cccc3=O)[C@H]1N2CCc1ccccc1 | -0.7 | i
CCCN1[C@@H]2Cn3c(ccc(-c4ccccc4)c3=O)[C@H]1[C@@H](C(=O)OC)[C@@H]2CO | -1.3 | i
Cc1cccc(S(=O)(=O)N2[C@@H]3Cn4c(ccc(-c5ccccc5)c4=O)[C@H]2[C@@H](C(=O)O)[C@@H]3CO)c1 | -1.1 | i
N#Cc1cccc(-c2ccc([C@@H]3[C@@H](CO)N4CCCCN(C(=O)Cc5ccccc5)C[C@@H]34)cc2)c1 | -5.1 | i
CCCC#Cc1ccc([C@@H]2[C@H]3CN(C(=O)Cc4ccccn4)CCCCN3[C@H]2CO)cc1 | 0.7 | i
O=C(Cc1cccnc1)N1CCCCN2[C@H](CO)[C@H](c3ccc(C#CC4CCCC4)cc3)[C@H]2C1 | 0.9 | i
COC(=O)[C@H]1[C@H](CO)[C@H]2Cn3c(ccc(C4=CCCCC4)c3=O)[C@@H]1N2Cc1ccccn1 | -0.2 | i
CCCN1[C@@H]2c3ccc(-c4ccc(OC)cc4)c(=O)n3C[C@H]1[C@H](CO)[C@H]2C(=O)OC | -0.2 | i
C[C@@H]1CN([C@H](C)CO)C(=O)c2c(c3ccccc3n2C)-c2ccccc2CO[C@@H]1CN(C)C(=O)Oc1ccccc1 | 1.4 | i
O=C(Cc1cccnc1)N1CCCCN2[C@H](CO)[C@H](c3ccc(C#CC4CC4)cc3)[C@H]2C1 | 4.5 | i
O=C(Cc1ccccn1)N1CCCCN2[C@H](C1)[C@H](c1ccc(-c3ccccc3F)cc1)[C@@H]2CO | -4.1 | i
C=CCN1C(=S)N[C@@H]2c3ccccc3O[C@@]1(C)[C@@H]2C(=O)OCC | 3.6 | i
COc1ccccc1CN1[C@H](CO)[C@H](c2ccccc2)C12CN(C(=O)Cc1ccccc1)C2 | 1.2 | i
Cc1cccc(S(=O)(=O)N2[C@@H]3Cn4c(ccc(-c5ccncc5)c4=O)[C@H]2[C@@H](C(=O)O)[C@@H]3CO)c1 | -2.6 | i
CN1c2ccc(Br)cc2[C@H]2NCC[C@H]2[C@H]1CO | -2.5&-3.7 | i
CC1(CCO)CC(C)(CCc2ccccc2)OO1 (centres undefined) | -20 | i
O=C(Cc1ccncc1)N1CCCCN2[C@H](CO)[C@H](c3ccc(-c4ccncc4)cc3)[C@@H]2C1 | -6.8 | i
CC=Cc1ccc2n(c1=O)C[C@@H]1[C@@H](CO)[C@H](C(=O)O)[C@H]2N1S(=O)(=O)c1ccccc1C (mixture of isomers) | -0.3 | i
O=C(Cc1ccccn1)N1CC2(C1)[C@H](c1ccccc1)[C@@H](CO)N2Cc1ccccn1 | 2.5 | i
O=C(Cc1ccccn1)N1CCCCN2[C@H](C1)[C@H](c1ccc(Br)cc1)[C@@H]2CO | 0.6 | i
COC(=O)[C@@H]1[C@@H](CO)[C@@H]2Cn3c(ccc(-c4cccnc4)c3=O)[C@H]1N2S(=O)(=O)c1ccccc1C | -0.8 | i
O=C(Cc1ccccn1)N1CCCCN2[C@H](CO)[C@@H](c3ccc(-c4ccc(F)cc4)cc3)[C@H]2C1 | 0.9 | i
C[C@H]1CN([C@@H](C)CO)C(=O)CCCn2nncc2CO[C@@H]1CN(C)C(=O)Oc1ccc2ccccc2c1 | -1.1 | i
COC(=O)[C@@H]1[C@@H](CO)[C@@H]2Cn3c(ccc(-c4cccnc4)c3=O)[C@H]1N2CCc1ccccc1 | -12 | i
O=C(Cc1ccccn1)N1CCCCN2[C@H](CO)[C@@H](c3ccc(-c4ccc(F)cc4)cc3)[C@@H]2C1 | -2.3 | i
COC(=O)[C@H]1[C@H](CO)[C@H]2Cn3c(ccc(-c4ccccc4F)c3=O)[C@@H]1N2C(C)=O | -1.3 | i
C/C=C/c1ccc([C@H]2[C@H](CO)N3CCCCN(C(=O)Cc4ccncc4)C[C@@H]23)cc1 | -7.7 | i

Five compounds already listed, ordered by number of heavy atoms, lowest first.
SMILES | AF4-AF9 inh | FGF22 binding
CC1(CCO)CC(C)(CCc2ccccc2)OO1 (centres undefined) | -20 | i
COC(=O)[C@H]1[C@H](CO)[C@H]2Cn3c(ccc(-c4ccccc4F)c3=O)[C@@H]1N2C(C)=O | -1.3 | i
O=C(Cc1ccccn1)N1CC2(C1)[C@H](c1ccccc1)[C@@H](CO)N2Cc1ccccn1 | 2.5 | i
O=C(Cc1ccccn1)N1CCCCN2[C@H](CO)[C@@H](c3ccc(-c4ccc(F)cc4)cc3)[C@H]2C1 | 0.9 | i
C[C@H]1CN([C@@H](C)CO)C(=O)CCCn2nncc2CO[C@@H]1CN(C)C(=O)Oc1ccc2ccccc2c1 | -1.1 | i

Going on with the list:
SMILES | AF4-AF9 inh | FGF22 binding
COc1ccc(C#Cc2ccc([C@H]3[C@H](CO)N4CCCCN(C(=O)Cc5cccnc5)C[C@@H]34)cc2)cc1 | -7.6 | i
O=C(Cc1ccccn1)N1CCCCN2[C@H](CO)[C@@H](c3ccc(-c4ccccc4)cc3)[C@H]2C1 | -3.3 | i
C[C@H](CO)N1C[C@H](C)[C@H](CN(C)C(=O)Oc2ccccc2)OCc2ccccc2-c2c(n(C)c3ccccc23)C1=O | 0.9 | i
Cc1ccccc1S(=O)(=O)N1[C@@H]2c3ccc(-c4cccnc4)c(=O)n3C[C@H]1[C@H](CO)[C@H]2C(=O)O | 0.7 | i
O=C(O)[C@H]1[C@H](CO)[C@H]2Cn3c(ccc(-c4ccc(F)cc4)c3=O)[C@@H]1N2CC1CCCCC1 | 1.4 | i
O=C(Cc1ccccn1)N1CCCCN2[C@H](C1)[C@@H](c1ccc(-c3ccc(F)cc3)cc1)[C@@H]2CO | -6.1 | i
O=C(O)C[C@H]1CC[C@@H]2NC[C@H](O)COC[C@H]2O1 | -2.8 | i
O=C(O)[C@@H]1[C@@H](CO)[C@@H]2Cn3c(ccc(-c4ccccc4)c3=O)[C@H]1N2S(=O)(=O)c1ccccc1F | -1.2 | i
COC(=O)[C@H]1[C@H](CO)[C@H]2Cn3c(ccc(-c4ccccc4)c3=O)[C@@H]1N2CC1CCCCC1 | 2.1 | i
C[C@H]1CN([C@@H](C)CO)C(=O)CCCn2nncc2CO[C@@H]1CN(C)C(=O)Oc1cccc2ccccc12 | 1.4 | i
O=C(Cc1ccccn1)N1CCCCN2[C@H](CO)[C@@H](c3ccc(Br)cc3)[C@@H]2C1 | -6.3 | i
O=C(Cc1ccncc1)N1CCCCN2[C@H](CO)[C@@H](c3ccc(C#Cc4ccccc4F)cc3)[C@@H]2C1 | -4.9 | i
O=C(Cc1cccnc1)N1CCCCN2[C@@H](CO)[C@@H](c3ccc(/C=C/c4ccccc4)cc3)[C@@H]2C1 | 8.9 | i
O=C(Cc1ccccn1)N1CCCCN2[C@@H](CO)[C@H](c3ccc(-c4ccccc4F)cc3)[C@@H]2C1 | -6.4 | i
COc1cccc(-c2ccc3n(c2=O)C[C@H]2[C@H](CO)[C@@H](C(=O)O)[C@@H]3N2C(=O)c2cnccn2)c1 | -2.1 | i
Cc1ccc(OC(=O)N(C)C[C@H]2OCc3cnnn3CCCC(=O)N([C@H](C)CO)C[C@H]2C)cc1 | -2.5&0.0 | i
O=C(Cc1ccccc1)N1CC2(C1)[C@H](c1ccccc1)[C@@H](CO)N2Cc1cccc(F)c1 | 2.2 | i
COC(=O)[C@H]1[C@H](CO)[C@H]2Cn3c(ccc(-c4ccccc4)c3=O)[C@@H]1N2CC1CC1 | 0.3 | i
C[C@@H]1CN([C@H](C)CO)C(=O)CCCn2cc(nn2)CO[C@@H]1CN(C)C(=O)Oc1cccc2ccccc12 | -0.2 | i

An excerpt; rates above refer to the full screens.
